Screening results as filed in PubChem.
Env fusion inh: HIV envelope-mediated fusion inhibition; AID 651610; HeLa-JRFL Env/CEM21 cell fusion, luciferase; inhibition, % at 12.3 µM; hit rate 1.1% among 360,000;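 active means mean replicate inhibition score of at least 50 and every replicate individually at or above 50; inconclusive means only one of the two criteria met; inactive means mean below 50 and not all replicates reaching 50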;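 further: 0% = plate neutral controls and 100% = maraviroc near 300 nM; one replicate is shown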
Yeast UUG start: alters start codon recognition fidelity in yeast; S. cerevisiae UUG-firefly luciferase reporter, luminescence/redox ratio; activity score, % at 18.7 µM; hit rate 0.13% among 350,000; AID 602363;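 active means replicate mean at a twofold rise or more, about +100% in these data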;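 further: firefly luciferase made from a UUG start codon reports start codon fidelity; reporter light over untreated wells divided by growth signal over untreated wells; some hits fall short of that in this replicate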
Numbers without * were called inactive; ? = inconclusive; [ ] = another dose, or the depositor's remark. Not all compounds are listed; count on the stated rates, not on these rows.

SMILES	Env fusion inh	Yeast UUG start
C[C@@H]1CN([C@H](C)CO)C(=O)c2cc(NC(=O)NC3CCCCC3)ccc2O[C@@H]1CN(C)C(=O)Nc1ccc2c(c1)OCO2	-34[16.7 µM]	-2
O=C(NCC[C@@H]1CC[C@H](NS(=O)(=O)c2cccc(F)c2)[C@@H](CO)O1)C1CCCC1	6[16.7 µM]	-1
Cc1noc(C)c1NC(=O)Nc1ccc2c(c1)C(=O)N([C@@H](C)CO)C[C@@H](C)[C@@H](CN(C)C(=O)CCCN(C)C)OCCCC[C@@H](C)O2	-20[16.7 µM]	13
C[C@@H]1CCCCO[C@H](CN(C)C(=O)Nc2ccc(F)cc2)[C@H](C)CN([C@@H](C)CO)C(=O)c2cc(NC(=O)Nc3cccc4ccccc34)ccc2O1	5[16.7 µM]	-15
O=C(C[C@@H]1C=C[C@H](NC(=O)c2cccnc2)[C@@H](CO)O1)NCc1ccc(Cl)c(Cl)c1	-2[16.7 µM]	-15
C[C@@H]1CN([C@@H](C)CO)C(=O)c2cccc(NC(=O)Nc3ccc(C(F)(F)F)cc3)c2O[C@@H]1CN(C)S(=O)(=O)c1ccc(F)cc1	?	1
C[C@@H]1CN([C@@H](C)CO)C(=O)c2cc(NC(=O)Nc3ccc4c(c3)OCO4)ccc2O[C@H]1CN(C)Cc1ccc(-c2ccccc2)cc1	16[16.7 µM]	-9
C[C@H](CO)N1C[C@H](C)[C@H](CN(C)S(C)(=O)=O)Oc2ncc(Br)cc2C1=O	-4[16.7 µM]	-10
C[C@H](CO)N1C[C@H](C)[C@H](CN(C)S(C)(=O)=O)OCCCC[C@H](C)Oc2ccc(NC(=O)c3ccncc3)cc2C1=O	-1[16.7 µM]	-7
C[C@@H]1CN([C@@H](C)CO)S(=O)(=O)c2ccc(-c3ccccc3)cc2O[C@@H]1CN(C)S(=O)(=O)c1ccccc1F	43[16.7 µM]	-14
C[C@H](CO)N1C[C@H](C)[C@H](CN(C)S(=O)(=O)c2ccc(Cl)cc2)OCCCC[C@H](C)Oc2ccc(NC(=O)Nc3ccc4c(c3)OCO4)cc2C1=O	2[16.7 µM]	-7
CCCC#Cc1ccc([C@@H]2[C@H](C#N)N(C(=O)C3CCCC3)[C@H]2CO)cc1	5[16.7 µM]	7
O=C(C1=C[C@@H](C2CC2)C[C@@H](OCc2ccc(CO)cc2)O1)N1CCCCCCC1	16[16.7 µM]	-10
COc1cccc(-c2cnc3c(c2)C(=O)N([C@H](C)CO)C[C@H](C)[C@@H](CN(C)Cc2cccnc2)O3)c1	-1[16.7 µM]	0
C[C@@H]1CN([C@@H](C)CO)S(=O)(=O)c2ccc(C#CC3CC3)cc2O[C@H]1CN(C)C(=O)c1ccncc1	-14[16.7 µM]	20
Cc1noc(C)c1NC(=O)N[C@@H]1C=C[C@H](CC(=O)Nc2ccc(-c3ccccc3)cc2)O[C@H]1CO	-4[16.7 µM]	-8
Cc1ccc(S(=O)(=O)N(C)C[C@@H]2Oc3ccc(NC(=O)Nc4ccc(C(F)(F)F)cc4)cc3CC(=O)N([C@H](C)CO)C[C@H]2C)cc1	30[16.7 µM]	6
C[C@@H]1CN([C@@H](C)CO)C(=O)c2cc(NC(=O)NC3CCCCC3)ccc2O[C@@H](C)CCCCO[C@@H]1CN(C)S(=O)(=O)c1ccc(F)cc1	-4[16.7 µM]	-12
COc1ccc(NC(=O)Nc2ccc3c(c2)C(=O)N([C@H](C)CO)C[C@@H](C)[C@H](CN(C)C(=O)NC2CCCCC2)OCCCC[C@@H](C)O3)cc1	15[16.7 µM]	0
CN(C)CC(=O)N1[C@H](CO)[C@@H](c2ccc(-c3cccc(C(=O)N(C)C)c3)cc2)[C@@H]1C#N	2[16.7 µM]	-1
C[C@@H]1CN([C@@H](C)CO)C(=O)c2cc(C#Cc3cccnc3)cnc2O[C@H]1CN(C)Cc1ccc(F)cc1	-2[16.7 µM]	-1
C[C@H](CO)N1C[C@H](C)[C@@H](CN(C)Cc2ccc(C(=O)O)cc2)OCCCC[C@H](C)Oc2ccc(NC(=O)Nc3cccc4ccccc34)cc2C1=O	8[16.7 µM]	1
C[C@H](CO)N1C[C@H](C)[C@@H](CN(C)C(=O)C2CCC2)Oc2ncc(C3=CCCC3)cc2C1=O	11[16.7 µM]	2
Cc1noc(C)c1NC(=O)N(C)C[C@@H]1Oc2ncc(C#CC3CCCCC3)cc2C(=O)N([C@@H](C)CO)C[C@@H]1C	9[16.7 µM]	10
C[C@H]1CCCCO[C@@H](CN(C)C)[C@@H](C)CN([C@@H](C)CO)C(=O)c2cc(NC(=O)CCC(F)(F)F)ccc2O1	1[16.7 µM]	15

Retrieved by compound from the list above:
SMILES	Env fusion inh	Yeast UUG start
CCCC#Cc1ccc([C@@H]2[C@H](C#N)N(C(=O)C3CCCC3)[C@H]2CO)cc1	5[16.7 µM]	7
C[C@@H]1CN([C@@H](C)CO)C(=O)c2cc(NC(=O)Nc3ccc4c(c3)OCO4)ccc2O[C@H]1CN(C)Cc1ccc(-c2ccccc2)cc1	16[16.7 µM]	-9
C[C@@H]1CN([C@H](C)CO)C(=O)c2cc(NC(=O)NC3CCCCC3)ccc2O[C@@H]1CN(C)C(=O)Nc1ccc2c(c1)OCO2	-34[16.7 µM]	-2
C[C@@H]1CN([C@@H](C)CO)S(=O)(=O)c2ccc(C#CC3CC3)cc2O[C@H]1CN(C)C(=O)c1ccncc1	-14[16.7 µM]	20

Going on with the list:
SMILES	Env fusion inh	Yeast UUG start
CCCN(C)C[C@@H]1Oc2cc(-c3cccc(C#N)c3)ccc2S(=O)(=O)N([C@@H](C)CO)C[C@@H]1C	2[16.7 µM]	-1
C[C@@H]1CN([C@H](C)CO)C(=O)c2cc(-c3ccc(C(=O)N(C)C)cc3)cnc2O[C@H]1CN(C)C(=O)CN(C)C	-28[16.7 µM]	-7
C[C@H]1CN([C@@H](C)CO)C(=O)c2cc(C#CC3CC3)cnc2O[C@H]1CN(C)Cc1ccccc1C(=O)O	3[16.7 µM]	6
C[C@@H]1CCCCO[C@H](CN(C)C(=O)CCCN(C)C)[C@H](C)CN([C@@H](C)CO)C(=O)c2cc(NS(=O)(=O)c3ccccc3)ccc2O1	7[16.7 µM]	16
COc1cccc(S(=O)(=O)N[C@@H]2CC[C@@H](CCn3cc(-c4ccc(F)cc4)nn3)O[C@H]2CO)c1	17[16.7 µM]	6
Cc1ccc(S(=O)(=O)Nc2ccc3c(c2)C(=O)N([C@@H](C)CO)C[C@@H](C)[C@H](CN(C)S(=O)(=O)c2ccccc2)OCCCC[C@H](C)O3)cc1	-12[16.7 µM]	-8
C[C@@H]1CN([C@H](C)CO)C(=O)Cc2cc(NC(=O)Nc3cccc4ccccc34)ccc2O[C@@H]1CN(C)C(=O)Nc1ccc(C(F)(F)F)cc1	11[16.7 µM]	-1
COc1ccc(NC(=O)Nc2cccc3c2O[C@@H](CN(C)Cc2ccccc2)[C@H](C)CN([C@@H](C)CO)C3=O)cc1	22[16.7 µM]	10
C[C@@H]1CCCCO[C@@H](CN(C)S(=O)(=O)c2ccc(F)cc2)[C@@H](C)CN([C@H](C)CO)C(=O)c2cc(NC(=O)Cc3ccccc3)ccc2O1	20[16.7 µM]	-10
COc1ccc(S(=O)(=O)Nc2ccc3c(c2)C(=O)N([C@@H](C)CO)C[C@@H](C)[C@@H](CN(C)Cc2ccccc2)OCCCC[C@@H](C)O3)cc1	-23[16.7 µM]	6
CN1C(=O)c2cc(NC(=O)c3ccc(F)cc3)ccc2OC[C@H]2O[C@@H](CC(=O)O)CC[C@@H]21	-15[16.7 µM]	11
COCC(=O)N[C@H]1CC[C@@H](CC(=O)NCc2ccc(Cl)cc2)O[C@@H]1CO	-19[16.7 µM]	-16
CNC[C@@H]1Oc2ccc(NC(=O)CCN3CCOCC3)cc2C(=O)N([C@@H](C)CO)C[C@H]1C	-2[16.7 µM]	-18
CCC(=O)N(C)C[C@H]1Oc2cc(/C=C/c3ccccc3)ccc2S(=O)(=O)N([C@H](C)CO)C[C@H]1C	25[16.7 µM]	48
O=C(C[C@H]1C=C[C@H](NS(=O)(=O)c2ccccc2)[C@@H](CO)O1)NCCN1CCCCC1	-8[16.7 µM]	7
Cc1ccc(S(=O)(=O)N(C)C[C@@H]2Oc3ccc(NC(=O)Cc4ccccc4)cc3CC(=O)N([C@@H](C)CO)C[C@H]2C)cc1	12[16.7 µM]	21
C[C@@H]1CCCCO[C@H](CN(C)C(=O)Nc2ccc(C(F)(F)F)cc2)[C@H](C)CN([C@@H](C)CO)C(=O)c2cc(NC(=O)c3ccccc3)ccc2O1	73*[16.7 µM]	-13
C[C@@H]1CN([C@H](C)CO)C(=O)c2cc(NC(=O)Nc3ccccc3)ccc2O[C@@H](C)CCCCO[C@@H]1CN(C)CC1CCCCC1	-10[16.7 µM]	12
COc1ccc([Si](C)(C)[C@H]2[C@H](CCn3cc([C@H](O)c4ccccc4)nn3)O[C@@]3(C(=O)N(C)c4c(Br)cc(C)cc43)[C@@H]2C)cc1	10[16.7 µM]	-14
COCC(=O)Nc1ccc2c(c1)[C@H]1C[C@H](CC(=O)NC3CCCCC3)O[C@H](CO)[C@H]1O2	8[16.7 µM]	3
CCCN(C)C[C@@H]1OCCCC[C@H](C)Oc2ccc(NC(=O)c3ccccc3)cc2C(=O)N([C@H](C)CO)C[C@@H]1C	-11[16.7 µM]	43
COc1ccc(S(=O)(=O)Nc2ccc3c(c2)C(=O)N([C@H](C)CO)C[C@@H](C)[C@@H](CN(C)C(=O)Nc2c(C)noc2C)OCCCC[C@@H](C)O3)cc1	-14[16.7 µM]	49
COc1ccc(NC(=O)N(C)C[C@@H]2Oc3ncc(C4=CCCC4)cc3C(=O)N([C@@H](C)CO)C[C@H]2C)cc1	0[16.7 µM]	13

Record cards, as listed above. Values in the order: Env fusion inh	Yeast UUG start
Entry for CCCC#Cc1ccc([C@@H]2[C@H](C#N)N(C(=O)C3CCCC3)[C@H]2CO)cc1 = 5[16.7 µM]	7
Entry for C[C@H](CO)N1C[C@H](C)[C@@H](CN(C)Cc2ccc(C(=O)O)cc2)OCCCC[C@H](C)Oc2ccc(NC(=O)Nc3cccc4ccccc34)cc2C1=O = 8[16.7 µM]	1
Entry for C[C@@H]1CN([C@H](C)CO)C(=O)Cc2cc(NC(=O)Nc3cccc4ccccc34)ccc2O[C@@H]1CN(C)C(=O)Nc1ccc(C(F)(F)F)cc1 = 11[16.7 µM]	-1
Entry for C[C@@H]1CCCCO[C@H](CN(C)C(=O)Nc2ccc(F)cc2)[C@H](C)CN([C@@H](C)CO)C(=O)c2cc(NC(=O)Nc3cccc4ccccc34)ccc2O1 = 5[16.7 µM]	-15
Entry for C[C@@H]1CCCCO[C@H](CN(C)C(=O)CCCN(C)C)[C@H](C)CN([C@@H](C)CO)C(=O)c2cc(NS(=O)(=O)c3ccccc3)ccc2O1 = 7[16.7 µM]	16
